# HCMV UL50-53 inh – inhibitors of HCMV UL50-UL53 nuclear egress complex interaction | HTRF UL50-UL53 interaction, normalized percent inhibition | inhibition, % (test concentration not listed) | actives 0.15% (n = 190,000) | AID 1918969;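 active means both replicates at 50% or more, plus weaker picks with an unusually low signal ratio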;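 further: stock transfer was 100 nL into about 20 µL; 0% = negative control wells and 100% = wells with untagged competitor protein; inactives centre near -12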
# Sa growth inh – blocks Staphylococcus aureus growth; S. aureus RN4220 growth, OD600, 20 h, 42 °C; stronger effect = lower value; relative growth, % (no concentration beside the values); actives 0.53% (n = 170,000); AID 720641;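 active means growth at 42 °C up to 50% and 20 or more points under that at 30 °C, or under 10% at both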;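 further: 300 nL library stock went into each well; scaled to the means of positive and negative controls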
# GIV-Gai inh – GIV-Galpha-i interaction inhibition. actives 0.42% (n = 210,000). percent of control (FP), % (concentration not given with the values). Galpha-i3/FITC-GIV peptide fluorescence polarization, 90 min; stronger effect = lower value; scaled: aluminum fluoride 0%, vehicle 100%. P08753. AID 1224905;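 active means replicate mean at 85% of control or lower, very high polarization wells dropped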;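 further: wells of about 15 µL received 100 nL stock; the first replicate is given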
# Target sequence (P08753 whole entry, looked up): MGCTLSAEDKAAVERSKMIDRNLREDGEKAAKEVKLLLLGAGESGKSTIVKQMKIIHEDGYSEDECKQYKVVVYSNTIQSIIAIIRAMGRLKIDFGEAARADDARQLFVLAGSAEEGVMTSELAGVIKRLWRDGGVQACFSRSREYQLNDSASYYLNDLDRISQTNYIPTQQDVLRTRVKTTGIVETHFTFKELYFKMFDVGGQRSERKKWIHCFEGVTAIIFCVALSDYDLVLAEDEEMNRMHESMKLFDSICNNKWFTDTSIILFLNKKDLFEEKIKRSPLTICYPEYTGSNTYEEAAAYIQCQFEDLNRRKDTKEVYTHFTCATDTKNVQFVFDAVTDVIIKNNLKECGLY
# Sa growth inh second temp – also measured in Sa growth inh; calls as there; relative growth, %; measured here: growth at 30 °C;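 optical density after 20 h as mean of two plates; 100% = untreated growth and lower means inhibition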
# Active calls of the source: *; · = not tested or not shown.
# The first two entries (preview)
SMILES,HCMV UL50-53 inh,Sa growth inh,Sa growth inh second temp,GIV-Gai inh
Cc1ccc(NC(=O)c2cnn3c(C(F)F)cc(-c4ccccc4)nc23)c(C)c1,-24,107,83,98
COc1ccc(CC(=O)n2nc(-c3ccc(Cl)cc3)nc2NCc2ccco2)cc1OC,·,87,83,103

# The list itself, previewed entries included:
SMILES,HCMV UL50-53 inh,Sa growth inh,Sa growth inh second temp,GIV-Gai inh
Cc1ccc(NC(=O)c2cnn3c(C(F)F)cc(-c4ccccc4)nc23)c(C)c1,-24,107,83,98
COc1ccc(CC(=O)n2nc(-c3ccc(Cl)cc3)nc2NCc2ccco2)cc1OC,·,87,83,103
COc1cc(NC(=O)CN(C)S(=O)(=O)c2ccc3c(c2)CCCC(=O)N3)cc(OC)c1OC,·,86,86,103
O=C(Nc1scc2c1c(=O)oc1ccccc12)c1ccccc1,-29,90,74,98
CCOc1ccc(C(=O)NCC(c2ccc3c(c2)OCO3)N2CCOCC2)cc1 (stereo not given),·,103,88,100
Cc1ccc(Cn2ccc(NC(=O)C3C4CCC(C4)C3C(=O)O)n2)cc1 (stereo not given),-14,107,84,101
CC(C)C(NS(=O)(=O)c1ccc2c(c1)oc(=O)n2C)C(=O)NCc1ccccc1 (stereo not given),-32,99,90,100
CCN1C(=O)/C(=C2\SC(=S)N(c3ccc(OC)cc3)C2=O)c2ccccc21,·,122,90,104
CC(C)Cn1cc(NC(=O)N2C(C)CCCC2C)c2ccccc2c1=O (stereo not given),-26,99,93,94
O=S(=O)(c1ccccc1)c1nc(-c2ccccc2)oc1N1CCc2ccccc2C1,15,·,·,103
CC(=O)NC1=NC(=O)/C(=C/c2cc([N+](=O)[O-])c(N3CCOCC3)cc2N2CCOCC2)S1,-32,·,·,106
O=C(NCC1CCCO1)c1ccc(N2CCCCS2(=O)=O)cc1 (stereo not given),-19,92,93,101
CCC1CCCCN1C(=O)COC(=O)C1=COCCO1 (stereo not given),-4,92,91,·
CCOC(=O)CC(NC(=O)c1cc2cc(OC)ccc2oc1=O)c1ccc(OC)cc1 (stereo not given),-3,94,98,100
CCC(=O)N1CCc2c(c(C(=O)NCc3cccc(C)c3)nn2C)C1,-21,·,·,101
O=C(c1ccco1)N1CCC(c2ccccc2)C1 (stereo not given),-8,97,82,·
Cc1ccc(C)c(CN2CCC(CNC(=O)C(CC(C)C)N3Cc4ccccc4C3=O)CC2)c1 (stereo not given),·,107,90,112
Cc1ccc(OCC(=O)Oc2ccccn2)cc1,-8,115,92,·
CCOC(=O)C1CCN(C(=O)c2cnn3c(C(F)(F)F)cc(-c4cccc(OC)c4)nc23)CC1,4,·,·,105
COc1cc(C(=O)Nc2ccc3oc(-c4cccc(Cl)c4)nc3c2)cc(OC)c1OC,-31,·,·,103
CCOC(=O)c1scc(-c2ccccc2)c1S(=O)(=O)Nc1ccccc1F,·,138,98,112
Cc1cc(-c2ccccc2)c(C#N)c(N)n1,-35,94,95,108
CCN(CC)S(=O)(=O)c1cccc(-c2cn3cccnc3n2)c1,-7,91,62,97
Cc1cccc(NC(=O)CCn2nc(C(=O)Nc3ccccc3)ccc2=O)n1,-53,·,·,101
COc1cccc(-c2ccnc3[nH]n(-c4ccccc4)c(=O)c23)c1,-6,103,87,105
Cc1cccc(C(=O)Nc2c(-c3ccccc3)nc3cc(C)ccn23)c1,6,107,99,105
COc1ccc(CNC(=O)Cn2c(=O)n3nc(-c4ccc(OC)cc4)nc3c3ccccc32)cc1,·,127,92,97
CCOc1ccccc1C(=O)N1c2ccccc2Sc2ccccc21,·,81,78,100
Cc1ccc2c(c1)nnn2CNc1ccc(OC(F)(F)F)cc1,-59,103,83,98
CCc1ccc(OC(=O)CN2C(=O)c3ccccc3C2=O)cc1,-13,74,95,·

# Compound profiles (already shown).
# `Cc1cc(-c2ccccc2)c(C#N)c(N)n1` in the list: HCMV UL50-53 inh = -35; Sa growth inh = 94; Sa growth inh second temp = 95; GIV-Gai inh = 108
# `COc1cc(C(=O)Nc2ccc3oc(-c4cccc(Cl)c4)nc3c2)cc(OC)c1OC` in the list: HCMV UL50-53 inh = -31; Sa growth inh = ·; Sa growth inh second temp = ·; GIV-Gai inh = 103
# `Cc1ccc(C)c(CN2CCC(CNC(=O)C(CC(C)C)N3Cc4ccccc4C3=O)CC2)c1` (stereo not given) in the list: HCMV UL50-53 inh = ·; Sa growth inh = 107; Sa growth inh second temp = 90; GIV-Gai inh = 112

# The list goes on:
SMILES,HCMV UL50-53 inh,Sa growth inh,Sa growth inh second temp,GIV-Gai inh
Cc1noc2ncnc(Nc3cccc(Cl)c3)c12,4,·,·,102
CCN(c1ccccc1)c1nnc(NC(=O)Nc2ccccc2F)s1,4,89,94,106
COc1ccc(C2=C(C(C)=O)Sc3nnc(-c4ccc(Cl)cc4)n3N2C(C)=O)cc1OC,·,132,85,100
CCOc1ccccc1-n1cc2c(c1-c1ccc(C)cc1)c(=O)n(C)c(=O)n2C,-37,·,·,107
Cc1cc(OCc2nc(C)c(C(=O)Nc3nccs3)s2)ccc1Cl,1,·,·,144
CCOC(=O)c1c(NC(=O)c2ccc(Cl)cc2Cl)sc(C(=O)Nc2ccc(OC)cc2)c1C,-20,·,·,99
COC(=O)c1nnn(-c2ccc(Cl)cc2)c1C(=O)OC,6,95,106,101
CNC(=O)c1sc(NCc2ccccc2OC)nc1C,-34,96,89,·
CCOC(=O)c1cnc(SCC(=O)c2cc(Cl)c(Cl)s2)nc1N,-8,97,82,105
CC1(C)Oc2ccc(NC(=O)c3ccco3)cc2O1,-9,79,61,102
O=c1c2cccnc2n(Cc2ccc(Cl)cc2)c(=O)n1Cc1ccc(F)cc1,-26,112,87,105
O=C(OCn1nnc2ccccc2c1=O)C1CCCCC1,-5,92,103,105
Cc1oc(CC(C)C)cc1C(=O)Nc1ccccc1C(=O)O,-28,97,44,99
COC(=O)c1ccc(NC(=O)COC(=O)c2cccc(N(C)C)c2)cc1,-33,98,91,·
COC(=O)c1ccc(Cn2c(SCc3cccc(C)c3)nc3ccncc32)cc1,14,97,78,102
O=C(Nc1ccc(Cl)cc1)Nc1ncnc2nc[nH]c12,-5,78,78,·
O=C(O)COc1ccc(Br)cc1/C=C1\SC(=O)N(Cc2ccc(F)cc2)C1=O,-14,·,·,111
O=C1/C(=C/c2ccc(O)cc2)SC(=Nc2ccc(O)cc2)N1c1ccc(O)cc1,-44,·,·,105
O=C(Nc1ccc(F)cc1F)C1CC(c2ccccc2F)=NO1 (stereo not given),-31,100,82,98
COc1ccccc1N1CCN(C(=O)Cc2c(C(=O)O)c(C)cn2C)CC1,·,92,87,99
CCOC(=O)c1c(NC(=O)Cc2ccccc2)sc(C(=O)Nc2cccc(C(F)(F)F)c2)c1C,8,·,·,106
Cc1nc(C(=O)Nc2ccc(Cl)cc2)sc1C(=O)Nc1ccc(Cl)cc1,22,74,79,102
Cc1ccccc1NC(=O)c1cc2sccc2n1Cc1ccc(F)cc1,-13,110,80,100
O=C(c1ccc(Oc2ccccc2)cc1)c1nc2c(n1O)CCCC2,·,89,90,94
CCOc1ncccc1C(=O)OCC(=O)NCc1ccccc1,-18,78,91,·
CC(=O)N1c2ncnn2C(c2ccccc2)CC1c1ccc(C)cc1 (stereo not given),-4,103,93,101
Cc1nnc2c3ccccc3c(-c3ccc(O)cc3)nn12,-28,74,52,112
O=C(C1CCCN(S(=O)(=O)Cc2ccccc2)C1)N1CCCCC1 (stereo not given),0,94,87,105
COc1ccc(C(CNC(=O)c2cc(-c3ccc(Br)cc3)on2)N2CCCC2)cc1 (stereo not given),-22,·,·,102
O=C(CSc1ccc2ccccc2c1)N1CCN(c2ccc(O)cc2)CC1,-47,117,69,·
CC(CCC(N)=O)C(=O)c1ccccc1 (stereo not given),-3,103,102,99
NCc1ccc(OC(F)F)cc1,-11,97,86,·
CCc1ccccc1NC(=O)CSc1ncc2c(n1)-c1cc(Cl)ccc1N(Cc1ccccc1)S2(=O)=O,·,84,76,105
CCN1CCc2nc3sc(C(=O)Nc4cccc(Cl)c4C)c(N)c3cc2C1,-53,99,81,116
CCC(C)NC(=O)C1CCN(S(=O)(=O)c2cccc3nonc23)CC1 (stereo not given),-14,103,95,103
CC1(C)CC(=O)C/C(=N/c2nn[nH]n2)C1,-20,104,84,·
COc1ccc2[nH]c3c(c2c1)CCN(C(=O)CCC1CCCC1)C3c1ccc(F)cc1 (stereo not given),-38,98,81,101
COc1cccc(-c2noc(-c3cn(-c4ccccc4)c(=O)c4ccccc34)n2)c1,-8,·,·,100
NC(Cc1cccc2nsnc12)C(=O)O (stereo not given),-62,98,89,·
O=C(Nc1cccc(C(F)(F)F)c1)c1ccco1,·,100,68,102
COC(=O)c1ccc(NC(=O)c2cc3cc4ccc(OC)c(Cl)c4nc3s2)cc1,·,84,87,101
Cc1cc(C)n(-c2ncnc3sc4c(c23)CC(C)CC4)n1 (stereo not given),·,95,94,103
NC(=O)C1CCN(CC(O)Cc2ccc3c(c2)OCO3)CC1 (stereo not given),-23,87,84,101
O=CN/N=C/c1cc(Br)ccc1O,-30,125,83,·
C1=CC2=Nc3cccc[n+]3CN2C=C1,-12,93,108,95

# Arranged by formula weight (rising): part of the list above.
SMILES,HCMV UL50-53 inh,Sa growth inh,Sa growth inh second temp,GIV-Gai inh
NCc1ccc(OC(F)F)cc1,-11,97,86,·
NC(=O)C1CCN(CC(O)Cc2ccc3c(c2)OCO3)CC1 (stereo not given),-23,87,84,101
COc1ccc2[nH]c3c(c2c1)CCN(C(=O)CCC1CCCC1)C3c1ccc(F)cc1 (stereo not given),-38,98,81,101
COC(=O)c1ccc(NC(=O)c2cc3cc4ccc(OC)c(Cl)c4nc3s2)cc1,·,84,87,101
CCc1ccccc1NC(=O)CSc1ncc2c(n1)-c1cc(Cl)ccc1N(Cc1ccccc1)S2(=O)=O,·,84,76,105

# The results go on:
SMILES,HCMV UL50-53 inh,Sa growth inh,Sa growth inh second temp,GIV-Gai inh
CCOc1ccc(OCC)c(NS(=O)(=O)c2cc(-c3cc(C)no3)ccc2C)c1,·,118,92,104
CN(Cc1ccccc1)C1CC(=O)N(c2ccccc2)C1=O (stereo not given),-3,97,77,98
O=c1oc(/C=C/c2ccccc2)nc2sc3c(c12)CCCC3,-22,·,·,98
CCOC(=O)Cn1cc(/C=C2/C(=O)NC(=S)N(Cc3ccco3)C2=O)c2ccccc21,2,116,95,87
CC1(C)Cc2c(sc3nc(NN)n(Cc4ccccc4)c(=O)c23)CO1,·,78,104,109
CCS(=O)(=O)c1ccc2oc(NC(=O)CCCOc3ccc(Cl)cc3C)nc2c1,-38,63,79,·
CC1CCCN(S(=O)(=O)c2ccc(N)cc2)C1 (stereo not given),1,90,80,96
CC(C)CS(=O)(=O)c1oc(-c2ccc(F)cc2)nc1S(=O)(=O)c1ccccc1,-12,1.0*,8.1*,106
O=c1n(Cc2ccc(Cl)cc2)c2sc3c(c2c2ncnn12)CCCC3,-6,61,65,108
COc1cccc(C(=O)N2CCC(C(=O)Nc3cccc(Cl)c3)CC2)c1,-16,102,78,105
COc1ccc(NC(NC(C)=O)(C(F)(F)F)C(F)(F)F)c(OC)c1,-6,96,92,97
CC(C)(C)c1nc(-c2ccc(-c3ccon3)s2)no1,·,89,96,109
COC(=O)CCNc1ccc2c(c1)OCCO2,1,104,84,·
